Screening data from PubChem BioAssay.
EPAC2 antag: Validation qHTS for antagonist of cAMP-regulated guanine nucleotide exchange factor 4 (EPAC2); Potency, µM (titrated, usually from 112 µM), without a hit: top-dose activity, negative = inhibition, hits mostly inhibitors; AID 1645886, 2021; 16,000 tested, 1.7% active; EPAC2 Rap1B BODIPY-GDP exchange, fluorescence; Rap guanine nucleotide exchange factor 4 (Homo sapiens), Q8WZA2; active = well fitted inhibition curve with a large enough effect; inconclusive = small, poorly fitted or top-dose-only effect; inactive = no such curve, though single readings can be large or run the other way;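 note: 100% = activation by cAMP agonist control; nearly all actives have a fitted effect of over 40% in size; the record reuses the description of the EPAC1 agonist screen; inactives centre near -10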
Target sequence (Q8WZA2 whole entry, looked up): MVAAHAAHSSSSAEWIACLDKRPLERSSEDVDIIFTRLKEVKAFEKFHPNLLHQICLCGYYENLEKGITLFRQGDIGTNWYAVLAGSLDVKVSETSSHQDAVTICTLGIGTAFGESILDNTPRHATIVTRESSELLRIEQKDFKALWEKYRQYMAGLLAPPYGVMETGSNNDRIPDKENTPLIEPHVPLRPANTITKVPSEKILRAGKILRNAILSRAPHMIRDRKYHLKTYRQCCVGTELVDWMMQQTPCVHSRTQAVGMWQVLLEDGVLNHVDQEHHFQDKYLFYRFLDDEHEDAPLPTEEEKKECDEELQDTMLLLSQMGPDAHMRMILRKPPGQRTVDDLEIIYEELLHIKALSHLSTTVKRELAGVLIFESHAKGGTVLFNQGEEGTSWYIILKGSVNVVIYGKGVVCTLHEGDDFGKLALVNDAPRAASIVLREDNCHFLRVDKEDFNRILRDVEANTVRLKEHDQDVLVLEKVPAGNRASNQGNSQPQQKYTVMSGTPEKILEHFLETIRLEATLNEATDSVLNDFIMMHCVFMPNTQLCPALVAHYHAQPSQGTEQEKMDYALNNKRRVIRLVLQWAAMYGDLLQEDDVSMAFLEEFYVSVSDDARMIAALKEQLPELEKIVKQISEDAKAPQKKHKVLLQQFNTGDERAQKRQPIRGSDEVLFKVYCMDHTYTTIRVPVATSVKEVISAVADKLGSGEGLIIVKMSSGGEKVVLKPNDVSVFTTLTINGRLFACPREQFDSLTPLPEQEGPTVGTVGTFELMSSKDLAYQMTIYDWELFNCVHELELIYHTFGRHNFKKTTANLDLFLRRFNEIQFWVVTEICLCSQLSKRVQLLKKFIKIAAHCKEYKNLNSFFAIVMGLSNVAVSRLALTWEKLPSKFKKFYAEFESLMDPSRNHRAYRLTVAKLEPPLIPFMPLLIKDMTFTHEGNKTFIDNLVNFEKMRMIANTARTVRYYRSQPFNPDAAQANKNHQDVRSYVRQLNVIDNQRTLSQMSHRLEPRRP
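Normalized against a 6.5 mM cAMP agonist control, compounds were tested on 100 nM EPAC2 exchanging Rap1B-bound BODIPY-GDP (250 nM) for 50 uM GDP. Fluorescence drop (ex 480, em 540 nm) was tracked at room temperature over 30 min at 5-min intervals.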
The depositor's hits bear a star; ? = inconclusive; & = joins results of further samples; ! = not confirmed by another sample; [ ] = dose if it differs, or a comment. Potency is the fitted concentration of half-maximal effect. Only part of the results is shown; count on the stated rates, not on these rows.

mol	EPAC2 antag
Cc1nc2cnc(N3CCN(C)CC3)nc2n(Cc2ccc(F)cc2)c1=O	-19.3%
COCCn1c(=O)c(-c2cccc(Cl)c2)nc2cncnc21	-22.1%
COC(=O)[C@@H]1CCCN1Cc1ccc2c(c1)CN(Cc1ccc3c(c1)OCCO3)CCO2	-23.4%
CN(Cc1ccco1)Cc1cc(-c2ccnc3cc(Cl)ccc23)ccc1O	-1.2%
O=C(Cn1cncn1)N1CCOc2ccc(CN3CCN(c4ccccc4)CC3)cc2C1	-2.4%
CCC1(C2CCN(Cc3cc4ccccc4o3)CC2)NC(=O)N(CC2COc3ccccc3O2)C1=O (stereo unspecified)	-19.3%
COc1ccc2c(OC)c3ccoc3nc2c1OC	-25.4%
O=C1CCCC2[C@@H]3CCC[N@+]4([O-])CCC[C@H](CN12)C34 (stereo partly specified)	9.9%
COc1ccc(/C=C/C(=O)c2cccs2)cc1OC	-2.4%
C/C=C1/C(=O)C[C@@H]2[C@H]3CCC4=CC(=O)CC[C@]4(C)[C@@H]3CC[C@]12C	?
O=CN1CCCN(C(=O)c2cc(NC(=O)c3ccccc3)cc3ncn(C4CCCC4)c23)CC1	-12.1%
NC(=O)NCCC[C@H](N)C(=O)O	-16.0%
O=C(c1csnn1)N1CCC2(CC1)CCN(c1ccncc1)CC2	-22.3%
COc1nc(N)nc2c1ncn2[C@@H]1O[C@H](CO)[C@@H](O)[C@@H]1O	55.6%[activator]
O=C(c1ccco1)N1CCC2(CCN(Cc3ccncc3)CC2)CC1	-11.3%
CN(C)Cc1ccccc1-c1cc(NCc2cccs2)ncn1	-16.4%

Quoted at random: 3 records from the list
mol	EPAC2 antag
O=CN1CCCN(C(=O)c2cc(NC(=O)c3ccccc3)cc3ncn(C4CCCC4)c23)CC1	-12.1%
COc1nc(N)nc2c1ncn2[C@@H]1O[C@H](CO)[C@@H](O)[C@@H]1O	55.6%[activator]
O=C(c1ccco1)N1CCC2(CCN(Cc3ccncc3)CC2)CC1	-11.3%

Other compounds.
mol	EPAC2 antag
CN(C)c1ccc(/C=C/c2cc[n+](C)c3ccccc23)cc1	?
COc1cc(CC(=O)O)ccc1O	-16.6%&-7.5%
CO/N=C(/C(=O)NC1C(=O)N2C(C(=O)O)=C(COC(N)=O)CSC12)c1ccco1 (stereo unspecified)	11.3%
CN1N=C(C(=O)N2CCOc3ccc(CN4CCCC(C(=O)c5cccnc5)C4)cc3C2)CCC1=O (stereo unspecified)	-2.7%
COC(=O)CC1C(C)(C)C2(O)OC34CC2C(=O)[C@@]1(C)C3CC[C@]1(C)C4=CC(=O)OC1c1ccoc1 (stereo partly specified)	-14.4%
COc1cccc(Cn2c(=O)c(-c3ccccc3)nc3cncnc32)c1	-26.3%
Cc1ccc(CN2C[C@H](Sc3ccccn3)C[C@H]2C(=O)Nc2ccc3sc(C)nc3c2)s1	0.1%
COCCNc1ncnc2ccc(-c3cccc(OC)c3)cc12	-27.0%
COc1ccc(NC(=O)N2CC[C@@]3(CCCNC3)C2)cc1	-15.8%
O=c1ccc2c(OCCCCc3ccccc3)c3ccoc3cc2o1	-8.2%
Cc1ccc(C)c(CN2C[C@H](Sc3nc4ccccc4[nH]3)C[C@H]2C(=O)N2CCCN(C)CC2)c1	-3.7%
O=C(O)[C@H]1C(=CCO)O[C@H]2CC(=O)N12	-5.1%
COc1ccccc1CN1CCCC2(CCN(C(=O)c3cccn3C)CC2)C1	-25.6%
CS(=O)(=O)CCCCN=C=S	-6.7%
NC1=NCCCC1	?
CC1O[C@@H](O[C@H]2C(Oc3cc(O)c4c(c3)OC(c3ccc(O)cc3)CC4=O)OC(CO)C(O)C2O)C(O)C(O)C1O (stereo partly specified)	-1.5%
COCC(=O)N1CCC[C@@]2(CCN(C(=O)Nc3cccc(F)c3)C2)C1	-14.5%
CCC1C(=O)NCCN1Cc1ccc2c(c1)CN(Cc1cccn1-c1ccc(Cl)cn1)CCO2 (stereo unspecified)	-17.4%
NC(CS)C(=O)O (stereo unspecified)	8.8%
CCCCCC[C@@H](CCC)C(=O)O	27.9%
C=CC(=O)c1ccc(CCCCCC)cc1	-9.7%
CC(C)(C)NC[C@H](O)COc1cccc2c1CCCC2=O	2.2%[56.6 µM]
COc1ccccc1-c1ccc2ncnc(NCc3ccccc3)c2c1	?
COc1cc(C(=O)NS(=O)(=O)c2ccccc2C)ccc1Cc1cn(C)c2ccc(NC(=O)OC3CCCC3)cc12	79.4µM*
CCOC(=O)C1CCCCN1C(=O)c1ccc(-n2cc(NC(=O)c3cccnc3)cn2)cc1 (stereo unspecified)	-2.5%
CCOC(=O)C1=C(C)NC(C)=C(C(=O)OC)C1c1cccc([N+](=O)[O-])c1 (stereo unspecified)	7.94µM*!
COc1ccc(C(=O)O)c(O)c1OC	0.5%
O=c1c(-c2cccs2)nc2cnc(Oc3ccccc3)nc2n1C1CC1	-22.3%
CS(=O)c1ccc(-c2nc(-c3ccc(F)cc3)c(-c3ccncc3)[nH]2)cc1 (stereo unspecified)	?
c1ccc(CNc2nc(-c3ccoc3)nc3ccccc23)cc1	-23.6%
COc1ccc2[nH]cc(CCNc3ncnc4ccc(-c5ccoc5)cc34)c2c1	-16.9%
COc1cccc(OC)c1OCCNC[C@@H]1COc2ccccc2O1	-28.2%

Exported as labelled records: three of the compounds above.
> COc1ccc(C(=O)O)c(O)c1OC
  EPAC2 antag: 0.5%

> COc1cccc(OC)c1OCCNC[C@@H]1COc2ccccc2O1
  EPAC2 antag: -28.2%

> CCOC(=O)C1CCCCN1C(=O)c1ccc(-n2cc(NC(=O)c3cccnc3)cn2)cc1 (stereo unspecified)
  EPAC2 antag: -2.5%

New compounds follow.
mol	EPAC2 antag
Cc1ncc2c(c1CNC(=O)c1cncs1)CCN(C(=O)c1csc(-c3cccs3)n1)C2	-2.7%
COc1cc(-c2noc(C)c2C(=O)NCCO)cc(OC)c1OC	?
CCOC(=O)C1CCCCN1C(=O)c1cnn(-c2nccc(-c3cc(C)sc3C)n2)c1C1CC1 (stereo unspecified)	-47.3%
COc1ccc2c(c1)OCc1c-2oc2cc(OC)ccc12	-20.4%
COCCCCCCCCCCCC(=O)O	-13.2%[11.4 µM]
CCc1ccc(/C=C2/SC(=S)NC2=O)cc1	?
COc1ccc(NC(=O)N2CC[C@@]3(CCCN(S(C)(=O)=O)C3)C2)cc1	-12.9%
CC1=CC(=O)CC(C)(C)C1(O)/C=C/C(C)=C\C(=O)O (stereo unspecified)	-12.1%&-12.3%
C[C@@](N)(C(=O)O)c1ccc(P(=O)(O)O)cc1	-10.7%
C[C@H]1CN(Cc2ccccc2)C(=O)[C@@H]1CC(=O)NCc1ccccc1	19.4%
COc1cc(OC)c(C(=O)CCCCN2CCC3(CC2)NC(=O)NC3=O)cc1NS(=O)(=O)c1ccc(C(F)(F)F)cc1	1.6%&-24.5%
COc1cc2c(cc1OC)C1Cc3ccc(OC)c(OC)c3CN1CC2 (stereo unspecified)	-5.9%
COc1cc(C=O)cc(OC)c1[N+](=O)[O-]	-15.4%
CN[C@H](CC(C)C)C(=O)N[C@H]1C(=O)N[C@@H](CC(N)=O)C(=O)N[C@@H]2C(=O)N[C@H]3C(=O)N[C@H](C(=O)N[C@H](C(=O)O)c4cc(O)cc(O)c4-c4cc3ccc4O)[C@H](O)c3ccc(c(Cl)c3)Oc3cc2cc(c3O[C@@H]2O[C@H](CO)[C@@H](O)[C@H](O)[C@@H]2O[C@H]2C[C@](C)(N)[C@H](O)[C@H](C)O2)Oc2ccc(cc2Cl)[C@H]1O	-8.3%
O=C1CC2(CCCC2)CC(=O)N1CCNCC1COc2ccccc2O1 (stereo unspecified)	10.7%
O=C(COc1ccc(Cl)cc1)N1CCN(Cc2ccc3c(c2)OCO3)CC1	-14.6%
COc1ccc(NC(=O)N2CC3(CCN(C(C)=O)CC3)C2)cc1	-19.7%
O=C(NCCO[N+](=O)[O-])c1cccnc1	21.7%
O=C(Oc1ccccc1)N1CCC2(CCCN(c3ncccn3)C2)CC1	?
CC1(C)S[C@@H]2C(C(=O)O)NC(=O)N2C1C(=O)O (stereo partly specified)	?
COCc1c(C(=O)NCC2CCCN(C)C2)cnn1-c1ncc2c(n1)-c1ccccc1CCC2 (stereo unspecified)	3.6%
COc1ccc2[nH]c(C(=O)c3ccccc3)cc2c1	-23.6%
Cc1cc(C(=O)NCC2CCC3(CCN(Cc4ccc(-c5ccccc5)cc4)CC3)O2)n(C)n1 (stereo unspecified)	?
Nc1nc2c(ncn2COCCO)c(=O)[nH]1	-2.5%
FC(F)(F)c1ccccc1-c1nc(N2CCOCC2)c2ccccc2n1	?
COCCNc1ncncc1-c1c(C)noc1C	-1.5%
COc1ccc(CCN2CCC(Nc3nc4ccccc4n3Cc3ccc(F)cc3)CC2)cc1	?
CC1(C)O[C@@H]2C[C@H]3[C@@H]4CCC5=CC(=O)C=C[C@]5(C)[C@H]4[C@@H](O)C[C@]3(C)[C@]2(C(=O)CO)O1	24.0%
N#CCCn1c(=O)cnc2cnc(Nc3ccccc3)nc21	-23.3%
COc1cccc(Cn2c(=O)c(CCc3ccccc3)nc3cnc(N4CCN(C)CC4)nc32)c1	-3.4%
CC[C@H]1OC(=O)[C@H](C)[C@@H](O[C@H]2C[C@@](C)(OC)[C@@H](O)[C@H](C)O2)[C@H](C)[C@@H](O[C@@H]2O[C@H](C)C[C@H](N(C)C)[C@H]2O)[C@](C)(O)C[C@@H](C)CN(C)[C@H](C)[C@@H](O)[C@]1(C)O	-17.4%
C=CC[n+]1cccc2cccc(O)c21	-15.3%
CCNc1ncc2nc(C)c(=O)n(CCc3ccccc3)c2n1	-17.7%
C[C@]12CCC(=O)C=C1CCC1C3CC[C@](O)(C(=O)CO)[C@@]3(C)CC3OC312 (stereo partly specified)	15.3%
C=CC[N+]1([C@H]2C[C@H]3[C@@H]4CC[C@H]5C[C@H](O)[C@@H](N6CCOCC6)C[C@]5(C)[C@H]4CC[C@]3(C)[C@H]2OC(C)=O)CCCC1	3.4%
CC(C)CN1CCC(=O)N(CCC#N)CC1	-5.4%
Cc1nc2ccc(C(=O)N3CCOc4ccc(CN5CCOCC5)cc4C3)cc2nc1C	-11.0%
COCC(=O)Nc1cc(C(=O)N2CC3CCCC2C3)c2c(c1)nc(-c1ccncc1)n2C (stereo unspecified)	-27.5%
C[C@@]12CCC[C@H]1C1CC[C@H]3C[C@H](O)CC[C@]3(C)C1CC2 (stereo partly specified)	-9.2%
CC(C)CN1CC[C@@]2(CCCN(C(=O)c3cc(C(F)(F)F)cc(C(F)(F)F)c3)C2)C1	?
CN(Cc1ccco1)c1cc(-c2ccccc2C(F)(F)F)ncn1	-7.9%
Cc1cc(C)c(NC(=O)C[C@H](CC(=O)O)c2cccc3ccccc23)c(C(=O)N2CCC3(CCCC3)CC2)c1	-1.1%
CC(=O)NCCNc1ccnc(-c2ccccc2C(F)(F)F)n1	-13.6%
CN1CCc2cc(NC(=O)Nc3cccnc3)ccc21	-6.3%
Cc1csc(CN(C)C(=O)c2sc3ncnc(NCC4CCCO4)c3c2C)n1 (stereo unspecified)	-17.7%
O=C(Nc1ccccc1)N1CC2(CCN(C(=O)c3ccco3)CC2)C1	-20.2%
Cc1onc(-c2ccccc2)c1-c1ccc(S(N)(=O)=O)cc1	-17.4%
COCCn1c(=O)c(-c2ccc(Cl)cc2)nc2cncnc21	-32.2%
COc1cccc(Cn2c(=O)c(-c3cccc(C#N)c3)nc3cnc(Nc4ccccc4)nc32)c1	-12.9%
C[C@@H]1CCC2C(C)(C)C3CC21CC[C@@]3(C)O (stereo partly specified)	6.4%
CC(C)c1nc(N(C)S(C)(=O)=O)nc(-c2ccc(F)cc2)c1/C=C/C(O)CC(O)CC(=O)O (stereo unspecified)	?
Cc1ccc2c(c1)CN(CCNC(=O)c1ccc3nc(C)[nH]c3c1)CC(C)O2 (stereo unspecified)	-7.4%
COc1ccc(N2C(=O)[C@@H]3C[C@H]2CN3Cc2ccc3nccnc3c2)cc1Cl	-18.7%
CC(C)C(C)/C=C/C(C)C1CCC2C3=CC=C4CC(O)CCC4(C)C3CCC21C (stereo unspecified)	-18.2%
C#Cc1cccc(Nc2ncnc3cc(OCCOC)c(OCCOC)cc23)c1	?
COc1ccc(OC)c(C(=O)N2CCc3c(cnc(C)c3CNS(=O)(=O)N(C)C)C2)c1	9.1%

New compounds follow:
mol	EPAC2 antag
COc1cc(=O)n2c(c1C(=O)NC(C)c1ccco1)CCN(C(=O)c1cccc(C)c1)CC2 (stereo unspecified)	-2.8%
CO[C@H]1[C@H](NC(=O)C(C)C)c2ccccc2C12CCN(Cc1cnc(N(C)C)s1)CC2	-23.9%
O=C(c1ccncc1)N1CCC2(CC1)CN(c1ccccn1)C2	-14.3%
COc1ncc2nc(-c3ccccc3)c(=O)n(Cc3cccs3)c2n1	?
NC(Cc1c[nH]c2ccccc12)C(=O)O (stereo unspecified)	-6.9%
COC(=O)c1c(C)cc(OC(=O)c2c(C)cc(O)c(C=O)c2O)c(C)c1O	-8.2%
CC(C)c1c(O)ccc2c1CCC1[C@@](C)(CO)CCC[C@@]21C (stereo partly specified)	-22.1%
CCCCCCCCCCC1=C(C)C(=O)C(OC)=C(OC)C1=O	-16.4%[151 µM]
